MT1-MMP act inh – MT1-MMP (human) activation inhibition; P50281; HT1080 RFP-PRO-GFP cells, GFP/RFP ratio fluorescence, overnight; percent of plate control window, DMSO zero; GFP/RFP ratio change, % at 20 µM; 360,000 tested, 0.061% active; AID 651647;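 active = GFP/RFP ratio change of at least 30% with cell ATP level not reduced by more than half and red fluorescence within 50% of control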; note: strong numbers were not always called active
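Assay system: HT1080 RFP-PRO-GFP cells. Benchmarks: DMSO vehicle wells and RFP-L50D-GFP reporter cell wells. Times: overnight cell settling, then overnight compound exposure, 37 °C, 5% CO2. Compound: 20 µM single dose, 1% DMSO. Read-out basis: GFP/RFP fluorescence ratio.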
Env fusion inh – blocks HIV Env-driven cell-cell fusion. HeLa-JRFL Env/CEM21 cell fusion, luciferase. inhibition, % at 12.3 µM. 360,000 tested, 1.1% active;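 active = mean replicate inhibition score of at least 50 and every replicate individually at or above 50; inconclusive = only one of the two criteria met; inactive = mean below 50 and not all replicates reaching 50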;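 note: 0% = plate neutral controls and 100% = maraviroc near 300 nM; one replicate is shown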
CSC inhib – blocks cancer stem cells; cancer stem cell-like cells viability, luminescence; 300,000 tested, 1.1% active; AID 2717; inhibition, % at 7.5 µM;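 active = mean at 75% or more and at least half the replicates too; inconclusive = mean and replicates disagree; tested in HMLE shEcad cells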;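 note: 0% = median of negative and 100% = median of positive control wells; the first replicate is given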
eIF4H FP inh – inhibitors of RNA binding by human eIF4H | Q15056 | eIF4H fluorescence polarization binding assay | inhibition, % at 35 µM | 290,000 tested, 0.94% active | AID 2012;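 active = 50% or more with normal probe brightness, or confirmed in later tests; inconclusive = above 50% with abnormal brightness, or retests that disagree; inactive = below 50% or failed in later tests; about a fifth of its hits are not listed in these tables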;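 note: calls also rest on retests at 20 µM and on dose response follow-up; 0% = protein and probe with vehicle and 100% = probe without protein; strong numbers were not always called active; many hits fall short of the cut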
PABP FP inh – PABP-poly(A) binding inhibition; P11940; PABP-poly(A) RNA binding, fluorescence polarization; inhibition, % at 35 µM; 290,000 tested, 1% active;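 active = 50% or more with normal probe brightness, or confirmed in later tests; inconclusive = above 50% with abnormal brightness, or retests that disagree; inactive = below 50% or failed in later tests; about a fifth of its hits are not listed in these tables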;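 note: calls also rest on retests at 20 µM and on dose response follow-up; controls were probe without protein and protein plus probe with vehicle; some compounds called inactive have numbers as strong as hits; many hits fall short of the cut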
Target sequence (P11940 whole entry, looked up): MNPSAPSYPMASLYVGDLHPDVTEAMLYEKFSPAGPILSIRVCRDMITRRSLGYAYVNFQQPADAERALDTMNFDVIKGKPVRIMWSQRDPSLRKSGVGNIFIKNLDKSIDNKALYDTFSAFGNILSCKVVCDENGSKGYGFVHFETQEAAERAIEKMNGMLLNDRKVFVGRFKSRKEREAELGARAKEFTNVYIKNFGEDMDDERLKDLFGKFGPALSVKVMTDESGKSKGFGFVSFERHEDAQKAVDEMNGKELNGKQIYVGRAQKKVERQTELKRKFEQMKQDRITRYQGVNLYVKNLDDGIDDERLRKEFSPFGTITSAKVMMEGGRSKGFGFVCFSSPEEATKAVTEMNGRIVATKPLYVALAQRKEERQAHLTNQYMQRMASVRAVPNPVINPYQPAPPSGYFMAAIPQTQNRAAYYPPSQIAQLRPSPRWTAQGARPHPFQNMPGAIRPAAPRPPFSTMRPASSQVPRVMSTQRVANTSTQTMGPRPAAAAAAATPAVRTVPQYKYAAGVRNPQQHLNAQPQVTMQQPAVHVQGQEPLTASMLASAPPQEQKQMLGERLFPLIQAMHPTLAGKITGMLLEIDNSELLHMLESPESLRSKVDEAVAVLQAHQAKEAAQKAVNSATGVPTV
UUG fidelity – modulators of start codon recognition fidelity in yeast; 350,000 tested, 0.13% active; activity score, % at 18.7 µM; S. cerevisiae UUG-firefly luciferase reporter, luminescence/redox ratio;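 active = replicate mean at a twofold rise or more, about +100% in these data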;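 note: firefly luciferase made from a UUG start codon reports start codon fidelity; reporter light over untreated wells divided by growth signal over untreated wells; some hits fall short of that in this replicate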
Rce1 inhib – inhibitors of yeast Ras-converting enzyme. Q03530. calls only. 290,000 tested, 0.27% active. yeast membranes, quenched prenylated peptide cleavage fluorescence;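 active = fall in fluorescence gain of 50% or more versus controls, with final raw signal at or below 3038400; inconclusive = same 50% fall but final raw signal above 3038400; inactive = fall in fluorescence gain under 50%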;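 note: plate controls were neutral control wells for no effect and wells lacking membranes for full effect; tested at 10 µM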
Target sequence (Q03530 whole entry, looked up): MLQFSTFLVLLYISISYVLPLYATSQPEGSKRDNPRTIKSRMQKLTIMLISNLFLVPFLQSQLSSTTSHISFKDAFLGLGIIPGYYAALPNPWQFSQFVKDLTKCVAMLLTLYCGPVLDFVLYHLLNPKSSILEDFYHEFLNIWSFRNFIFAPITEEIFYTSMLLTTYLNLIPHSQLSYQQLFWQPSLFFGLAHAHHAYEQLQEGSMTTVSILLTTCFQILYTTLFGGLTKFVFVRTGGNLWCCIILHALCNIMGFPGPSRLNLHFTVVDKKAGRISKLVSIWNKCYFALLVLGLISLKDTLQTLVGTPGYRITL
PABP FP inh retest – recorded beside PABP FP inh, whose call it bears; inhibition, %; compound at 20 µM; confirmation repeats;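 mean of two retest wells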
MT1-MMP act inh RFP – second read-out of MT1-MMP act inh, no call of its own (marks repeat the call); RFP signal change, %; measured here: RFP expression control read;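 0 = vehicle wells; hits needed this value within 50% of zero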
Numbers without * were called inactive; i = inactive; u = inconclusive; x = no result given; & = joins results of further samples. Not all compounds are listed; count on the stated rates, not on these rows.

SMILES | MT1-MMP act inh | MT1-MMP act inh RFP | Env fusion inh | CSC inhib | eIF4H FP inh | PABP FP inh | UUG fidelity | Rce1 inhib | others
C=CCOC(=O)C1=C(C)NC(C)=C(C(=O)OCC=C)C1c1ccc(C)o1 | 2 | -5 | 5 | 9 | 2 | 2 | 6 | i
O=C(NCCCN1CCOCC1)c1ccccc1NS(=O)(=O)c1ccc(Br)cc1 | -1 | 3 | 14 | -6 | 5 | -4 | x | i
COC(=O)CCc1c(C)c(C(=O)c2ccco2)c2ccccn12 | -8 | 7 | x | -11 | 15 | 12 | 2 | i
CCOc1ccccc1NC(=O)C1CCCN(S(=O)(=O)c2cccc3cccnc23)C1 (stereo not drawn) | 0 | 0 | -21 | -28 | -3 | 16 | -6 | i
Cc1ccc(NC(=S)NC2CC3CCC(C2)N3Cc2ccco2)cc1C (stereo not drawn) | 6 | 2 | x | -12 | -4 | -4 | -14 | i
CS(=O)(=O)c1ccc(NC(=O)CCN2C(=O)C3CCCCC3C2=O)cc1 (stereo not drawn) | 2 | 1 | -5 | -1 | x | x | x | i
NC(=O)C1CCN(CCC(=O)Nc2ccc(Br)cc2)CC1 | 0 | 4 | -13 | 8 | -2 | u | -16 | i
CN(CC(=O)Nc1ccc(F)cc1)C(=O)Cn1c(=O)oc2ccccc21 | -9 | 4 | -3 | -9 | x | x | -1 | x
CC1(C)CC(=O)N(c2cccc(Cl)c2)C(=O)C1 | 0 | 2 | 12 | -12 | -3 | -1 | 0 | i
O=C(O)/C=C/C(=O)Nc1ccc(S(=O)(=O)N2CCCC2)cc1 | 3 | 5 | -6 | -6 | -3 | -4 | x | i
O=C(NC(=S)Nc1nc(-c2cccc([N+](=O)[O-])c2)cs1)c1ccccc1Cl | 5 | 3 | -16 | 18 | -5 | -3 | x | x
Cc1ccc(NC(=O)CN(C)C2CCCCC2)cc1Br | -1 | 1 | 13 | 5 | 8 | 6 | -8 | i
Cc1c(O)ccc2c(O)c(NC(=O)c3ccc4c(c3)CCC(C)(C)O4)c(=O)oc12 | 0 | 0 | -5 | -15 | 3 | 6 | x | i
CCCNC(=O)c1n[nH]c2c1CC(C(C)(C)CC)CC2 (stereo not drawn) | -3 | -7 | -14 | -6 | x | x | 4 | x
O=C(C(c1ccccc1)c1ccccc1)N1CCN(Cc2ccco2)CC1 | -2 | -3 | -16 | -6 | 16 | u | 38 | i
CCc1ccc2[nH]c(=O)c(C(c3nnnn3CCOC)N3CCN(c4ccccc4)CC3)cc2c1 (stereo not drawn) | -4 | -1 | x | 18 | 4 | 30 | 7 | i
Cc1c(C(=O)OCC(C)C)[nH]c2c1C(=O)CC(c1cccs1)C2 (stereo not drawn) | 5 | -16 | -59 | 54 | 4 | -4 | -14 | i
CCOC(=O)CC1=C(C(=O)OCC)C(c2cccs2)C(C#N)=C(N)O1 (stereo not drawn) | -5 | 5 | x | x | 4 | 2 | -5 | i
O=S(=O)(c1cccc(S(=O)(=O)N2CCN(c3ncccn3)CC2)c1)N1CCOCC1 | 1 | -6 | x | x | 2 | 5 | -12 | i
O=S1(=O)N=C(N/N=C/c2ccccn2)c2ccccc21 | -2 | 3 | 4 | -6 | 14 | -72 | x | i

Reprinted from the part before: two entries, then new ones.
SMILES | MT1-MMP act inh | MT1-MMP act inh RFP | Env fusion inh | CSC inhib | eIF4H FP inh | PABP FP inh | UUG fidelity | Rce1 inhib | others
O=S(=O)(c1cccc(S(=O)(=O)N2CCN(c3ncccn3)CC2)c1)N1CCOCC1 | 1 | -6 | x | x | 2 | 5 | -12 | i
O=S1(=O)N=C(N/N=C/c2ccccn2)c2ccccc21 | -2 | 3 | 4 | -6 | 14 | -72 | x | i
COc1ccc2[nH]c(=O)c(CN(C3CCCCC3)C(c3nnnn3Cc3ccco3)C(C)C)cc2c1 (stereo not drawn) | -25 | 8 | x | 6 | 63* | 64* | x | i
Cc1ccc(S(=O)(=O)c2c(C)cc(C)nc2Cl)cc1 | 0 | 2 | x | -11 | 6 | 32 | x | i
COc1ccc(N(S(=O)(=O)c2ccccc2)S(=O)(=O)c2ccccc2)c(N)c1 | -6 | -3 | 1 | 30 | x | x | -4 | i
O=c1[nH]c(C2CCCN(S(=O)(=O)c3ccccc3)C2)nc2c1nnn2Cc1ccccc1F (stereo not drawn) | 8 | -6 | x | -3 | 2 | 2 | -9 | i
c1ccc(-c2nnc(OCc3cccnc3)c3ccccc23)cc1 | -4 | -3 | 7 | -16 | -12 | 4 | -7 | i
Cc1ccc(NC(=O)c2ccco2)c(NC(=O)c2ccccc2C)c1 | 6 | 9 | -2 | -6 | -2 | -8 | -14 | i
Cc1occc1-c1nnc(SCC(=O)c2ccc(F)cc2)o1 | 5 | -1 | -22 | 4 | -10 | -2 | -7 | i
O=C(NC1CCCCC1)NC1CCN(S(=O)(=O)c2ccc3c(c2)OCCO3)CC1 | 2 | -1 | -48 | -11 | -8 | 6 | -21 | i
Oc1ccc(CCc2ccccn2)cc1 | 2 | 2 | -12 | x | x | x | -21 | x
NC(=O)CCCc1nc(-c2ccccc2)no1 | 0 | 4 | -8 | -14 | -14 | -1 | -9 | i
CC1=C(C(=O)Nc2ccccc2)C2(CCCCC2)C(C(N)=O)C(=S)N1 (stereo not drawn) | -4 | -2 | x | 1 | 0 | 12 | x | i
COc1cc(C(=O)OCC(=O)N2CCC(C)CC2)cc2c1OCCO2 | 4 | 4 | x | -9 | x | x | 6 | x
COc1ccc(-n2nnc3c(=O)n(CC(=O)NCC4CCCO4)cnc32)cc1 (stereo not drawn) | 6 | 0 | 4 | -6 | 0 | 5 | -10 | i
Cc1ccccc1OCCn1nc(C(=O)O)c2ccccc2c1=O | 9 | 1 | x | -1 | -6 | 11 | -21 | i
Cc1ccc(S(=O)(=O)N(CC(=O)N/N=C\c2cccs2)c2cccc3cccnc23)cc1 | -7 | -7 | -2 | -6 | 8 | -11 | x | i
CCCCC1CCC(C(=O)N(C)CC(=O)Nc2cccc(F)c2)CC1 (stereo not drawn) | 5 | -5 | 17 | 5 | -4 | 5 | -13 | x
COCCCNc1ccn2nc(-c3cc(OC)c(OC)c(OC)c3)cc2n1 | 17 | 5 | -1 | x | x | x | -2 | x
NC(=O)C1CCN(c2oc(-c3ccccc3F)nc2S(=O)(=O)c2ccc(Cl)cc2)CC1 | 1 | 0 | x | -3 | -2 | 1 | -7 | i
COc1ccc(C2CC(c3ccc4ccccc4c3)=NN2C(=O)CN2C(=O)CCC2=O)cc1 (stereo not drawn) | -3 | -5 | 6 | -24 | 2 | -8 | -9 | i
c1ccc(-c2cc3n(c2)CCc2ccccc2-3)cc1 | -8 | -2 | x | 4 | 1 | -5 | x | i
COc1ccc(CN2CCNC(=O)C2CC(=O)NCCc2c[nH]c3ccccc23)c(OC)c1 (stereo not drawn) | -2 | 2 | 29 | -11 | -4 | -12 | x | i
CC(=O)c1c(C)nn(CC(O)COc2ccc3c(c2)CCC3)c1C (stereo not drawn) | 5 | -8 | x | 3 | 7 | 49 | -10 | i
O=C(Cc1ccccc1)NC(Nc1ccccc1)C(Cl)(Cl)Cl (stereo not drawn) | 1 | -1 | x | 10 | 6 | 2 | -14 | i
COCCN(CCOC)S(=O)(=O)c1ccc(C(=O)Nc2ccc(S(=O)(=O)Nc3nccc(C)n3)cc2)cc1 | -5 | 1 | 16 | -9 | 1 | -9 | x | i
Cc1cc(C)n(-c2ncnc3ccccc23)n1 | -3 | -1 | -8 | 17 | -4 | -3 | x | i
Cc1ccccc1NC(=O)CSc1ccsc1[N+](=O)[O-] | -8 | -10 | 4 | 1 | u | 32* | -6 | i | PABP FP inh retest=115*
Cc1cc[n+](CC(=O)c2ccc(NC(=O)c3ccccc3)cc2)cc1 | 2 | 0 | 2 | -7 | 2 | -7 | x | i
COc1ccc(NC(=O)N(C)C[C@H]2Oc3ccc(NC(=O)C4CCCCC4)cc3C(=O)N([C@H](C)CO)C[C@@H]2C)cc1 | -1 | 2 | -13 | -14 | x | x | 3&0 | x
COC(=O)c1cc(OC)c(OC)cc1NC(=O)c1ccc(OC)c(OC)c1 | -8 | -7 | 20 | 25 | -24 | -13 | 2 | i
O=C(Nc1ccc(-n2nncc2-c2ccco2)cc1)c1ccc(F)cc1 | 11 | -3 | -58 | -23 | -1 | -10 | -4 | i
Cc1ccc(NC(=O)c2ncn(CCCN3CCN(c4ncccn4)CC3)n2)cc1C | 2 | 1 | u | x | x | x | -18 | x
Cc1ccc(S(=O)(=O)N(CC(=O)Nc2ccccc2C(=O)O)c2ccccc2C)cc1 | 6 | 2 | -10 | -2 | -6 | 11 | x | i
O=C(COC(=O)c1ccccn1)NCc1cccs1 | -1 | 2 | 3 | -4 | x | x | -21 | i
O=C(NNS(=O)(=O)c1ccc(Cl)cc1)c1ccc(S(=O)(=O)N2CCCCC2)cc1 | -1 | 1 | -14 | 7 | -11 | 18 | 13 | i
Cc1cc(/C=N/n2cnnc2)c(C)n1-c1ccc(OCc2ccc(Cl)cc2Cl)cc1 | -9 | -31 | x | 103* | -2 | -7 | x | i
CCOC(=O)CNS(=O)(=O)CCN1C(=O)c2ccccc2C1=O | 1 | 8 | -2 | -1 | -11 | -7 | -9 | i
COc1cccc(/C=C/C(=O)Nc2cccc(C(C)=O)c2)c1OC | 5 | 0 | -44 | -2 | 7 | 1 | x | i
Cc1cc2c(cc1S(=O)(=O)N1CCN(c3ccccc3)CC1)OCCN2C | -1 | 1 | 1 | 35 | -10 | -9 | -2 | i
COc1ccc(-c2csc3ncnc(NCCO)c23)cc1 | -13 | -16 | 46 | -9 | 2 | -8 | -8 | i
O=C(CC1CCCCC1)NCc1cn2ccsc2n1 | -1 | -3 | x | -6 | -12 | -6 | -24 | i
Cc1ccc2cc(CN(Cc3ccco3)C(=O)c3ccccc3)c(=O)[nH]c2c1C | 3 | 4 | x | 2 | 0 | 0 | -16 | i
O=Cc1ccc(N2CCCCCC2)cc1 | 4 | 0 | x | -13 | -9 | -5 | -13 | i
CC1CCC(NC(=O)C2CCC(CNS(=O)(=O)c3ccccc3)CC2)CC1 (stereo not drawn) | -3 | 1 | -1 | 1 | -2 | 0 | -10 | i
CCC(=O)N(CCC(c1ccc(C)cc1)c1ccco1)Cc1ccco1 (stereo not drawn) | -8 | -2 | 5 | 8 | 20 | 12 | -3 | i
O=C(CCC(=O)N1CCN(Cc2ccc(F)cc2)CC1)Nc1nnc(C2CCCCC2)s1 | 3 | -16 | 4 | 9 | 6 | -3 | -10 | i
CC(C)c1nc2ccccc2n1CC(O)COC1CCCCC1 (stereo not drawn) | 8 | 3 | 0 | -5 | -2 | -9 | -11 | i
C=CCN(CC=C)Cc1c(C)[nH]c2ccc(C(=O)OCC)cc2c1=O | 2 | 0 | x | -4 | -3 | -9 | -30 | i
COc1cc(-c2cnc3c(NC=O)cc(-c4cccc(NC(C)=O)c4)cn23)cc(OC)c1OC | 25 | 12 | -71 | x | x | x | -8 | x
CCS(=O)(=O)c1ccc2oc(SCC(=O)c3ccco3)nc2c1 | 3 | 0 | x | -12 | 2 | -18 | -20 | i
Cc1cccc(N2CCN(S(=O)(=O)c3ccc4[nH]c(=O)ccc4c3)CC2)c1C | 0 | -7 | 33 | 16 | 5 | 15 | -6 | i
Clc1ccc(C2=NN(c3ccccc3)C(c3ccco3)C2)cc1 (stereo not drawn) | 4 | 0 | 11 | 12 | -11 | 10 | -19 | i
Cc1ccccc1-c1nc(CN2CCCC(C(=O)NCc3cccnc3)C2)c(C)o1 (stereo not drawn) | 1 | 2 | 10 | -14 | 3 | 3 | -18 | i
